Ecoli growth: E. coli growth inhibition | 330,000 compounds, 0.21% hits | Escherichia coli growth, OD600, 23 h; active compounds read low | OD600 absorbance (test concentration not listed);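 active = OD600 absorbance below the run mean of sample wells minus 3.6 SD, in any replicate, cut at about 0.56 in these data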;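 note: stock transfer was 300 nL into about 60 µL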
RanGTP-Impb inh: inhibitors of RanGTP-importin-beta interaction, primary screen, biochemical, FRET, CFP-Ran, YFP-importin-beta, homogeneous; cell-free CFP-Ran/YFP-importin-beta FRET ratio; inhibition, % (no concentration beside the values); AID 2216; 300,000 compounds, 1.1% hits;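 active = most replicates above 15%; inconclusive = exactly half above 15%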;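 note: 0% = DMSO wells and 100% = Ran loaded with GDP instead of GTP; wells of about 40 µL received 100 nL stock; the first replicate is given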
MLL AF4-AF9 inh: MLL-AF4/AF9 protein interaction inhibition; AlphaScreen, biotin-AF4 peptide binding to FLAG-AF9; AID 651704; 350,000 compounds, 0.47% hits; inhibition, % at 10 µM;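 active = every replicate reaching a set inhibition limit, whatever the replicate mean, cut at about 25% in these data; inconclusive = mean inhibition reaches that limit but some replicates miss it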;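 note: 0% = plate neutral control median and 100% = total signal loss; the record names both 10 and 1 µM as test concentration; the first replicate is given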
FGF22 binding: binders of recombinant human FGF22 by thermal shift; 340,000 compounds, 1.5% hits; calls only at 9.99 µM; SYPRO orange fluorescence; percent of sucrose octasulfate shift, DMSO zero; AID 651658;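 active = melting point raised past a set limit in the mean and every replicate; inconclusive = no clear call; three in four hits are not shown here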
Target sequence (Q9HCT0 whole entry, looked up): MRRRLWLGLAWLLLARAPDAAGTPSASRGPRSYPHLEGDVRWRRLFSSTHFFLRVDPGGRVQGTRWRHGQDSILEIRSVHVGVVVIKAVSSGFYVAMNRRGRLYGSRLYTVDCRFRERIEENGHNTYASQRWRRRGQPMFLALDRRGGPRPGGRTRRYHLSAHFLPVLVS
Vif TR-FRET: inhibitors of Vif binding to APOBEC3G peptide, primary screen, biochemical, TR-FRET, GST-Vif 1-94, biotin-A3G peptide, dose response retest (AID 1117319); inhibition, %; hits with a dose series show IC50 in µM; TR-FRET GST-Vif / biotin-A3G peptide binding; higher % means a stronger effect; test concentration not given here; strong numbers were not always called active; 260,000 compounds, 0.57% hits;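 active = above the screen mean plus three standard deviations and confirmed in dose response; inconclusive = results disagree or hit not tested in dose response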;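 note: Vif residues 1-94 fused to GST binding biotinylated APOBEC3G peptide 110-148; 0% = full assay without inhibitor and 100% = GST in place of GST-Vif; retest series ran down from 100 µM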
HNF4A DNA FP: change in binding of human HNF4 alpha to DNA; activity change, % at 10 µM; HNF4a-FITC DNA binding, fluorescence polarization, 1 h; P41235; 360,000 compounds, 0.3% hits; in the data active = activity change above about 30%, passing the limit was not always enough;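 note: controls were the assay level and a saturating level of protein; the project sought stronger binding though the title names inhibitors; some compounds called inactive have numbers as strong as hits; positive values seem to mean higher polarization but the record does not say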
Target sequence (P41235 whole entry, looked up): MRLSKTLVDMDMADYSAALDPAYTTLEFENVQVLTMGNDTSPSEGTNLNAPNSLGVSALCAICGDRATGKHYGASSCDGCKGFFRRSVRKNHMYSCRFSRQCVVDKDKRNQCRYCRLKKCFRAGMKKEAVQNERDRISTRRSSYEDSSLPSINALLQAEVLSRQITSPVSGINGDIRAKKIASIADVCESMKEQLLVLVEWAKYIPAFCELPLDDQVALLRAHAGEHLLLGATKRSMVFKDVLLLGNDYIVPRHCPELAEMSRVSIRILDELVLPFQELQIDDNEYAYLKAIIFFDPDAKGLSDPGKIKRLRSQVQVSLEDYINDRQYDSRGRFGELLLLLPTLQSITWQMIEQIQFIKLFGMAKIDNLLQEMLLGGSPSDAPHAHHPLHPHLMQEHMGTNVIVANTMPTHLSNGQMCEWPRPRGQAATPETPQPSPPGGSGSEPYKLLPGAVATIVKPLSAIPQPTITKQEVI
UCH37 DUB inh: human UCH37 deubiquitinating enzyme inhibition; Q9Y5K5; purified proteasome/UCH37, Ub-AMC cleavage fluorescence; inhibition, % (concentration not given with the values); 330,000 compounds, 0.33% hits; AID 588478;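 active = mean of two replicates above 20%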;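 note: 0% = compound-free wells with enzyme and 100% = wells lacking proteasome; stock transfer was 100 nL into about 20 µL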
Target sequence (Q9Y5K5 whole entry, looked up): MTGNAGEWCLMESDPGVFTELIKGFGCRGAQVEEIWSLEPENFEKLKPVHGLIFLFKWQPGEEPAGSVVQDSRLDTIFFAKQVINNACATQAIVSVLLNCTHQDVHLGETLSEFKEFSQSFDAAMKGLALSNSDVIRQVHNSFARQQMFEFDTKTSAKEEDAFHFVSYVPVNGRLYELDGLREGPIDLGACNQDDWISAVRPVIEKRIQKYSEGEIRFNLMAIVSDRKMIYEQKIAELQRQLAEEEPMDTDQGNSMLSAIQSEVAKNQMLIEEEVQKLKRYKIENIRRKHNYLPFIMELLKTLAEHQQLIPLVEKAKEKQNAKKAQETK
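Material: human UCH37 enzyme supplied as purified proteasome complex. Measure: % inhibition of Ub-AMC cleavage fluorescence. Medium: pH 7.4 Tris-HCl (50 mM) with ovalbumin, ATP-MgCl2, DTT. Times: 30 min preincubation with enzyme, 25 min cleavage at room temperature. Detection: AMC fluorescence intensity at 355/460 nm.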
* = called active by the depositor; i = inactive; ? = inconclusive; · = no result given; & = joins results of further samples. These rows are one share of the data; rates above refer to the full screens.

SMILES	Ecoli growth	RanGTP-Impb inh	MLL AF4-AF9 inh	FGF22 binding	Vif TR-FRET	HNF4A DNA FP	UCH37 DUB inh
CCOC(=O)c1[nH]c2ccc(OC)cc2c1NC(=O)c1ccc2c(c1)OCO2	0.699	-3.4	·	·	-0.1%	4.0	-1.8
O=C(CN1C(=O)NC2(CCCCC2)C1=O)Nc1ccc(S(=O)(=O)N2CCOCC2)cc1	0.733	1.9	·	·	-5.2%	1.2	1.0
O=C(CCC(=O)OCc1cccc([N+](=O)[O-])c1)Nc1ccc(F)cc1	0.674	0.8	-0.2	i	·	-2.5	1.8
c1cncc(-c2nc3ccccc3o2)c1	0.662	-5.7	·	·	29.2%	4.7	4.1
COc1ccc(C(F)(F)F)cc1N/C=C/c1nnnn1-c1ccc2ccccc2c1	0.693	-1.2	-5.4	i	2.1%	0.7	-71.9
CNS(=O)(=O)c1ccc(C(=O)NCC(=O)NCC2COc3ccccc3O2)cc1 (stereo not drawn)	0.705	·	3.3	i	-1.4%	-1.5	0.0
O=C(NN1C(=O)c2ccccc2NC1c1ccc([N+](=O)[O-])o1)c1ccc([N+](=O)[O-])cc1 (stereo not drawn)	0.618	0.5	0.0	i	15.5%	1.2	5.7
COc1ccc(C(=O)Nc2cccc(C(=O)NCc3ccccc3)c2)cc1	0.654	0.8	-0.4	i	8.3%	-1.4	-0.1
CCCCc1nc2cc(C(=O)N3CCC[C@H]3CO)ccc2o1	0.699	2.1	-1.4	i	·	2.5	-1.2
CC(C1CC2CCC1C2)N1CC(O)=C(c2nc3ccccc3[nH]2)C1=N (stereo not drawn)	0.671	?	-17.2	i	·	10.2	-2.1
CC(=O)Nc1cccc2c1C(=O)N(c1ccc(C)cc1)C2=O	0.725	-4.4	·	·	-4.3%	-6.9	-0.3
CCOc1ccc(NC(=O)c2sc(N3CCOCC3)nc2-c2ccccc2)cc1	0.684	-1.2	·	·	·	3.3	-13.9
O=C(Nc1n[nH]c(=S)s1)c1ccco1	0.728	5.9	-4.6	i	·	0.4	9.6
Cc1ccc(C(=O)NCc2nc3ccccc3[nH]2)o1	0.696	-0.2	0.6	i	·	-1.7	2.5
COc1ccc(CCNC(=O)CC(=O)N/N=C/c2ccc(Br)cc2)cc1OC	·	-0.1	-0.6	i	·	1.8	·
O=C(NC(=S)N1CCCC1)c1ccc(Cl)cc1	0.675	-3.1	-1.9	i	·	-2.6	-1.8
CC1=CC(C)(C)Nc2ccc(OC(=O)CCN3C(=O)c4ccccc4C3=O)cc21	0.707	-2.5	2.9	i	3.5%	-3.2	-7.8
COc1ccc(CCNCc2ccc(OCc3ccccc3)cc2)cc1	0.561	1.6	4.0	i	35.6%	1.2	2.3
O=C(/C=C/c1ccc([N+](=O)[O-])cc1)NCCSCc1ccco1	0.664	0.8	·	·	7.3%	-2.9	4.8
Cc1ccc(C2(C(F)(F)F)NC(=O)N3C(=C2C#N)Nc2ccccc23)cc1 (stereo not drawn)	0.776	·	·	·	-0.1%	6.3	-0.1
COc1ccc(CNn2c(-c3cccs3)nc3ccccc3c2=O)cc1OC	0.648	5.5	6.8	i	20.9%	-1.3	1.6
CCCNC(=O)CN1C(=O)NC(CCSC)C1=O (stereo not drawn)	0.723	1.4	-3.3	i	-1.1%	-0.1	4.0
Cn1c(=O)c(Nc2ccc(Cl)cc2)c2c3c(cccc31)C(=O)c1ccccc1-2	·	-28.9	8.3	·	12.9%	·	3.6
CC(C)CNC(=O)CSc1ccc(S(=O)(=O)N2CCN(C)CC2)cn1	0.698	·	-3.3	i	-8.9%	1.1	1.2
Cc1ccc(Nc2n[nH]c(C)c2[N+](=O)[O-])cc1	0.692	3.6	·	·	18.7%	3.5	3.6
(list continues)
SMILES	Ecoli growth	RanGTP-Impb inh	MLL AF4-AF9 inh	FGF22 binding	Vif TR-FRET	HNF4A DNA FP	UCH37 DUB inh
COc1cc(C(=S)N2CCOCC2)cc(OC)c1OC(=O)c1cc([N+](=O)[O-])cc([N+](=O)[O-])c1	0.747	2.5	·	·	?	-2.8	5.1
COc1ccc(NC(=O)c2oc3ccc(S(=O)(=O)N4CCOCC4)cc3c2C)c(OC)c1	0.68	·	2.3	i	·	-0.5	-146.7
CC12CC(c3ccccc3O1)N(C(=O)c1ccco1)C(=S)N2c1ccccc1 (stereo not drawn)	0.728	0.8	·	·	19.9%	2.8	3.3
COc1ccc(C2=NC(C)(C)Cc3cc(OC)c(OC)cc32)cc1OC	0.739	1.2	3.2	i	·	3.7	7.2
CN(C)CCCNC(=O)C[C@H]1C[C@H](C(=O)N2CCCCC2)[C@@]2(CCc3ccccc3)c3[nH]c4ccc(Cl)cc4c3CCN2C1=O	0.686	·	1.4	i	3.8%	-1.2	8.2
C[C@@H]1CN([C@@H](C)CO)C(=O)CCCn2cc(nn2)CO[C@H]1CN(C)S(=O)(=O)c1ccc(C#N)cc1	·	·	-1.4&0.2	i	7.3%	-1.9	·
CS(=O)(=O)c1cccc(NC(=O)C2CCCN2S(=O)(=O)c2ccc(F)cc2)c1 (stereo not drawn)	0.698	-1.0	-2.0	i	·	1.1	2.8
Cc1noc(COc2ccccc2OCC(N)=O)n1	0.629	6.7	-3.5	i	·	4.2	-0.6
COc1ccc(CCNC2=NCC(C)S2)cc1 (stereo not drawn)	0.702	0.0	·	·	2.1%	2.1	1.0
COC(=O)[C@@H]1Cc2c([nH]c3ccccc23)C(C)(C)N1C(=O)CCl	0.685	-1.6	-9.9	i	-3.4%	-1.0	-0.3
COc1cc(CC(=O)N2CCC(n3nccc3NC(=O)C3CC3)CC2)cc(OC)c1OC	0.687	-2.6	-2.6	i	·	5.1	4.3
Cc1ccc(C2(C)NC(=O)N(CC(=O)N(c3ccccc3)C3CCS(=O)(=O)C3)C2=O)cc1 (stereo not drawn)	0.689	·	-2.0	i	-4.2%	4.8	4.2
CCn1c(=O)c(=O)[nH]c2cc(C(=O)NCC3CCCCC3)ccc21	0.686	-3.9	·	·	·	-0.7	-1.7
CC1(NC(=O)NCc2ccco2)CCS(=O)(=O)C1 (stereo not drawn)	0.65	-2.8	-2.5	i	-0.6%	-1.2	1.9
CCOc1ccc(NC(=S)Nc2cccc3ccccc23)cc1	0.698	-1.1	6.1	i	·	5.6	-1.4
O=C(NNC(=O)c1ccc(F)cc1F)c1ccc(-n2cnnn2)cc1	0.708	-2.0	-0.5	i	·	-3.9	1.5
Cc1ccc(NC(=S)NCc2ccco2)c(C)c1	0.7	0.2	1.2	i	-3.0%	-0.8	2.9
N#Cc1nc(-c2ccc(OCc3ccc(Cl)cc3)cc2)oc1N1CCOCC1	0.619	-2.8	6.1	i	22.9%	-5.3	-42.8
Cc1cccc(NC(=S)N/N=C2\CC(C)(C)Oc3ccc(O)cc32)c1	·	1.4	1.8	i	8.6%	35.7*	·
CNCc1cc(Br)c(OCC(=O)Nc2ccccc2OC)c(OC)c1	0.71	2.3	4.8	i	-13.1%	15.0	4.3
O=[N+]([O-])c1ccc(N2CCN(S(=O)(=O)c3ccccc3)CC2)cc1NCc1cccnc1	0.77	15.8	·	·	-1.4%&1.2%	1.2	9.5
Cc1c(C)[n+](=O)c(-c2ccc(F)cc2)c(C)n1[O-]	0.713	-1.4	·	·	-2.5%	0.0	-1.1
COc1cc(C2C(C#N)=C(N)OC3=C2C(=O)CCC3)c([N+](=O)[O-])cc1OC (stereo not drawn)	0.69	-3.7	·	·	?	-96.9	0.3
CSc1ccc(Cn2c(C)c(C(=O)NCc3ccc(F)cc3)sc2=O)cc1	·	·	0.4	i	·	-3.4	·
CCCc1nnc(NC(=O)COc2ccc3c(c2)OCO3)s1	0.708	4.0	0.1	i	·	-1.4	2.6
Continued:
SMILES	Ecoli growth	RanGTP-Impb inh	MLL AF4-AF9 inh	FGF22 binding	Vif TR-FRET	HNF4A DNA FP	UCH37 DUB inh
Cc1cccc2[nH]c3c(N4CCC5(CC4)OCCO5)ncnc3c12	0.706	?	·	·	3.4%	5.3	-140.5
O=C(NCc1ccccc1)C(c1ccc(C(F)(F)F)cc1)N1CCN(CCN2CCOCC2)CC1 (stereo not drawn)	·	·	2.5	i	·	5.5	·
CCCCN(C(=O)CSc1nc2ccccc2s1)c1c(N)n(CCCC)c(=O)[nH]c1=O	0.668	·	-0.5	i	-7.8%	1.5	5.0
Cc1ccc(CN2CC(C(=O)OCc3ccccc3Cl)CC2=O)cc1 (stereo not drawn)	0.624	0.7	-2.0	i	0.2%	1.8	0.0
CN(Cc1ccccc1)C(=O)c1ccccc1C(=O)OCC(=O)N(Cc1ccccc1)C(C)(C)C	0.675	·	5.5	i	·	1.5	3.7
O=C(c1cccc(NS(=O)(=O)c2ccccc2)c1)N1CCN(c2ccccc2)CC1	0.655	-1.7	-19.4	i	0.9%	-1.1	1.6
CC(=O)N1N=C(C)CC1c1ccc(OCc2ccccc2)cc1 (stereo not drawn)	0.684	-1.5	-6.9	i	10.9%	-0.2	1.4
COC(=O)COc1ccc2c(c1)O/C(=C\c1cccc([N+](=O)[O-])c1)C2=O	0.676	1.0	-0.5	i	0.3%	1.3	3.9
Cc1cc(Cl)ccc1OCC(=O)Nc1ccncc1	0.635	9.3	1.6	i	·	-5.5	6.8
COc1cc(OC)c(OC)cc1/C=C1\CCC/C(=C\c2cc(OC)c(OC)cc2OC)C1=O	0.714	-62.5	20.6	i	-0.2%	53.9*	2.0
CCCCC(=O)NC(=O)NC(c1ccccc1)c1ccccc1	0.666	1.5	-3.6	·	32.7%	-4.3	6.3
CC(C)CN(C(=O)c1cc(Cl)nc2ccccc12)c1c(N)n(Cc2ccccc2)c(=O)[nH]c1=O	0.697	2.4	-1.9	i	-3.3%	-4.7	2.2
O=C(Cc1cccc(NC(=O)C2CCCN(C(=O)C3CCCC3)C2)c1)Nc1cccc(C(=O)N2CCCCC2)c1 (stereo not drawn)	0.691	·	-2.1	i	·	-1.3	2.7
C=CCSc1nc(C)c(Cc2cccc3ccccc23)c(=O)[nH]1	0.713	2.2	-0.2	·	0.5%	-0.2	3.7
CCOC(=O)N1CCN(C(=O)Cn2ncc3c2-c2ccccc2OC3)CC1	0.745	-2.6	3.4	i	6.8%	3.1	1.6
O=C1CSC(=S)N1N=C1CCCCCC1	0.661	·	-0.5	i	·	0.1	1.3
Cc1nn2c(COc3ccc(NC(=O)c4ccccc4)cc3)nnc2c2ccccc12	0.678	-0.8	-0.2	i	3.1%	1.8	4.3
Cc1nc2c([nH]1)C1(CCN(Cc3ccccc3)CC1)C(C#N)=C(N)O2	0.754	·	·	·	25.2%	-5.8	5.8
COc1ccc(C2=Nc3cc(C)ccc3OC2)cc1	·	-5.6	·	·	-4.7%	-2.0	·
O=C(NCc1ccccc1)C(=O)NCC1CCCN1S(=O)(=O)c1cccs1 (stereo not drawn)	0.614	-3.8	1.4	i	1.7%	0.7	-2.3
O=C(Nc1nc2n(n1)C(c1ccc(Cl)cc1)CC(c1ccc(Cl)cc1)N2)c1ccco1 (stereo not drawn)	0.696	5.4	·	·	-8.2%	·	5.1
O=C(CNC(=O)c1ccc2ccccc2c1)NC1CCCCC1	0.693	·	-2.0	i	·	2.3	-2.4
Cc1cccc(N(Cc2ccccc2)C(=O)c2ccccc2F)c1	0.712	-1.8	-0.8	i	·	1.8	3.6

Record cards, as listed above. Order of screens: Ecoli growth | RanGTP-Impb inh | MLL AF4-AF9 inh | FGF22 binding | Vif TR-FRET | HNF4A DNA FP | UCH37 DUB inh
CC(=O)N1N=C(C)CC1c1ccc(OCc2ccccc2)cc1 (stereo not drawn) reads 0.684 | -1.5 | -6.9 | i | 10.9% | -0.2 | 1.4
O=C(Cc1cccc(NC(=O)C2CCCN(C(=O)C3CCCC3)C2)c1)Nc1cccc(C(=O)N2CCCCC2)c1 (stereo not drawn) reads 0.691 | · | -2.1 | i | · | -1.3 | 2.7
COc1ccc(C2=Nc3cc(C)ccc3OC2)cc1 reads · | -5.6 | · | · | -4.7% | -2.0 | ·

Screening data deposited in PubChem BioAssay by several laboratories.
